Hck Nef HTS: inhibitors of Nef-activated human Hck kinase, primary screen, biochemical, Z-Lyte FRET, 384-well, Hck-YEEI; Tyrosine-protein kinase HCK (Homo sapiens), P08631; Recombinant Hck-YEEI plus Nef, Z-Lyte FRET kinase assay; inhibition, % at 20 µM; actives 0.68% (n = 220,000); AID 463187, 2010;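 active = Hck-Nef kinase inhibition above about 50%, limit read from the data; inactive = inhibition below that limit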;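 note: 0% = DMSO with Hck plus Nef and 100% = Hck alone without Nef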
Target sequence (P08631 whole entry, looked up): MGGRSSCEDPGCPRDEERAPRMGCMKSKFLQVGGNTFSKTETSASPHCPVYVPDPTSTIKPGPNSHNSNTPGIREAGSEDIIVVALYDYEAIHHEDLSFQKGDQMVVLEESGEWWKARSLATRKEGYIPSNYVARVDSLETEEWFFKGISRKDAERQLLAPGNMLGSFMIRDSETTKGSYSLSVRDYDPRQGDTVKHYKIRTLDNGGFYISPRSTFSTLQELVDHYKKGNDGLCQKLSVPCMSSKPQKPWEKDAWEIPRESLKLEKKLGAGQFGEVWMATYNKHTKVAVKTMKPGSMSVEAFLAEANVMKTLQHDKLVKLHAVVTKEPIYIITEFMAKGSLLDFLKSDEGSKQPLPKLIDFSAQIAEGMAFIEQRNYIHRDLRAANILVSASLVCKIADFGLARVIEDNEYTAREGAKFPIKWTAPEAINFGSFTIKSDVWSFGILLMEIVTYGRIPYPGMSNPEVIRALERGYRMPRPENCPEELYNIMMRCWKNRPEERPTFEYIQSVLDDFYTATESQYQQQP
FXIIa inh 1536: human FXIIa protease inhibitors, primary screen, biochemical, 1536-well; purified FXIIa, Boc-QGR-AMC fluorogenic substrate, 2 h; inhibition, % at 5 µM; actives 0.3% (n = 220,000); AID 800, 2007; in the data active = inhibition above about 40%;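 note: 0% = enzyme with no compound and 100% = blank without enzyme; many of its hits are not listed in these tables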
Thrombin inh: human alpha-thrombin inhibitors, primary screen, counter-screen for coagulation protease inhibitor project, biochemical, 1536-well, fluorogenic AMC substrate | AID 1046, 2008 | Boc-VPR-AMC fluorogenic substrate cleavage | inhibition, % at 5 µM | actives 0.26% (n = 220,000);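 active = inhibition at or above 40%; inactive = inhibition below 40%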;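 note: 0% = enzyme with no compound and 100% = wells without enzyme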
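signal = AMC fluorescence, 355/460 nm | material = human alpha-thrombin enzyme | control set = enzyme without compound as high, wells lacking enzyme as low | times = reaction at room temperature | read-out basis = percent inhibition scaled between no-compound controls and no-enzyme blanks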
14-3-3 Bad PPI: inhibitors of 14-3-3 zeta/Bad binding, primary screen, biochemical, TR-FRET, bovine 14-3-3 zeta; 14-3-3 protein zeta/delta (Bos taurus), P63103; TR-FRET 14-3-3zeta/Dy647-pBad peptide displacement, 1 h; inhibition, % at 21.7 µM; actives 0.71% (n = 220,000);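 active = inhibition above about 70%, limit read from the data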;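 note: 0% = full 14-3-3 plus peptide FRET controls and 100% = background without 14-3-3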
Target sequence (P63103 whole entry, looked up): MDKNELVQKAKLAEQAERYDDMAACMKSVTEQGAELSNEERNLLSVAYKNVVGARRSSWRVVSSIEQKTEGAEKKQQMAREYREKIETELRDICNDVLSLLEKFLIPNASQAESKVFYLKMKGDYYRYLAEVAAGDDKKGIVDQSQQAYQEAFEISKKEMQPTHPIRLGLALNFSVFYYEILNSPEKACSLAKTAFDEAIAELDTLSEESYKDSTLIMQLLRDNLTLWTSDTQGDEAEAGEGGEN
FXIa inh: human FXIa protease inhibitors, primary screen, biochemical, 1536-well; purified FXIa, Boc-Glu-Ala-Arg-AMC fluorogenic substrate; inhibition, % at 5 µM; actives 0.14% (n = 220,000); AID 798, 2007;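 active = inhibition of at least 40%; inactive = inhibition below 40%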;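 note: fluorescence of freed AMC excited at 355 nm; 0% = enzyme without compound and 100% = no enzyme blank; many of its hits are not listed in these tables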
KLK5 inh: human KLK5 protease inhibitors, primary screen, biochemical, 1536-well; Kallikrein-5 (Homo sapiens), Q9Y337; recombinant hK5, fluorogenic AMC substrate cleavage; inhibition, % at 5 µM; actives 0.59% (n = 210,000); AID 873, 2007;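 active = inhibition of 40% or more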;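 note: 0% = enzyme controls without compound and 100% = no-enzyme blanks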
Target sequence (Q9Y337 67-293 limits assumed): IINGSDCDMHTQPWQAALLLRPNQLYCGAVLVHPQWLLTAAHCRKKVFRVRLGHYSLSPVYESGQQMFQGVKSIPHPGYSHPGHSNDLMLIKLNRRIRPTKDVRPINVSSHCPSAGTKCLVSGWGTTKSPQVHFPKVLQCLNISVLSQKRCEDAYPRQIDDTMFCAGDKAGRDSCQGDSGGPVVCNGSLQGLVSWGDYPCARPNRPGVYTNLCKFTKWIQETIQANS
Wee1 stabilizer: Wee1 degradation inhibitors, primary screen, cell-based, HeLa, Wee1K328M-luciferase, luminescence | reporter increase, % at 5 µM | actives 1.2% (n = 220,000) | HeLa Luc-Wee1K328M stability; 100% = proteasome inhibitor MG132 effect | Wee1-like protein kinase (Homo sapiens), P30291;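 active = activation above the mean of all tested compounds plus 3 SD, set per screening run, cut at about 8.8% in these data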;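 note: cells exposed to compound for 20 h before luminescence read; 0% = DMSO alone and 100% = MG132 at 30 µM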
Numbers without * were called inactive; . = no result given; & = joins results of further samples; [ ] = remark or other dose. Not all compounds are listed; the hit share may differ from the screen's.

SMILES	Hck Nef HTS	FXIIa inh 1536	Thrombin inh	14-3-3 Bad PPI	FXIa inh	KLK5 inh	Wee1 stabilizer
CCCS(=O)(=O)N1CCC(C(=O)NCCCOC)CC1	-1	-4	3	-7	-1	7	-2
CC1CCc2c(C(=O)NCCN3CCOCC3)csc2C1 (centres undefined)	0	9	3	2	-1	-6	-3
CC(C)CNC(=S)NC1CC2CCC(C1)N2Cc1ccccc1 (centres undefined)	0	10	0	2[fluorescence artefact?]	5	-7	0
COC(=O)c1ccc(NC(=O)COc2ccc(C3C(C#N)=C(N)Oc4c3ccc3ccccc43)cc2OC)cc1 (centres undefined)	0	17	-3	27	3	-5	-1
COc1ccc(N2CCN(c3oc(Cc4ccccc4)nc3C#N)CC2)cc1	1	-5	-4	-14	-10	-4	0
CCCCNC(=O)C(CC)Sc1nc2sc(C(=O)OC)c(C)c2c(=O)n1N (centres undefined)	1	9	-4	-8	-4	4	-1
CC(=O)N1N=C(c2ccc(C)o2)CC1c1ccc(Br)cc1 (centres undefined)	1	-5	5	-11[fluorescence artefact?]	4	7	5
CCCc1nnc(SCC(=O)N2CCCCC2C)n1CC1CCCO1 (centres undefined)	0	6	-6	-3[fluorescence artefact?]	-9	-1	-2
CN(C)C(=O)CSc1nnc(Cc2ccc([N+](=O)[O-])cc2)o1	-1	16	2	8	19	3	-3
CCCC(=O)Nc1sc(C)c(-c2ccc(C(C)CC)cc2)c1C#N (centres undefined)	-4	6	0	-6[fluorescence artefact?]	3	-1	1
Cc1ccc(C(=O)Nc2ccccc2-c2ccccc2)cc1S(=O)(=O)Nc1cccc(C)c1C	0	19	1	5	4	7	-1
Cc1c(CCOC(=O)C2C3CC4CC(C3)CC2C4)sc[n+]1CC(=O)c1ccc(Br)cc1 (centres undefined)	2	16	2	2	5	3	-1
COc1cc(C2N(c3cc(C)on3)C(=O)C3CCCN32)cc(OC)c1OC (centres undefined)	-1	13	0	2[fluorescence artefact?]	0	-2	-1
Cc1cnn(-c2cc(N/N=C/c3ccccc3Cl)ncn2)c1	2	7	-8	15	2	-11	0
O=C(CN(Cc1ccco1)C(=O)c1ccccc1)Nc1ccc(Cl)c(Cl)c1	0	-4	-6	3	2	-1	0
O=C(CN1C(=O)C2C3C=CC(C3)C2C1=O)Nc1cccc2c1CCCC2 (centres undefined)	0	7	-3	48	-2	12	1
CCC(C)(C(=O)NC1CCCC1)N(C(=O)c1ccccn1)c1ccccc1 (centres undefined)	0	4	-1	-2	-6	-6	-1
O=C(O)COc1ccc(-c2nccc(-c3cccs3)n2)cc1	3	19	3	-2	-1	-10	-3
CC(=O)N(c1ccc2oc(=O)sc2c1)S(=O)(=O)c1cccs1	-1	11	2	8	-7	0	-2
CC1(C)OC(=O)C(=CNn2cnc3ccccc3c2=O)C(=O)O1	1	7	0	24[fluorescence artefact?]	-5	-4	0
Cc1cccc(C(=O)Nc2cccc(OC(=O)c3cccc(C)c3)c2)c1	1	2	2	1	18	15	0
CCOc1ccccc1/C=N/NC(=O)Cc1csc(Nc2cccc(C(F)(F)F)c2)n1	0	8	1	-4	-1	-6	-4
COc1ccc(CCNc2ccncn2)cc1	1	16	-1	72*	4	2	-1
C=CCNC(=O)c1onc(CSc2cc(C)cc(C)c2)c1C(=O)O	1	8	-5	25	3	-22	0
COC(=O)C(CCSC)NC(=O)CNS(=O)(=O)c1ccc(F)cc1 (centres undefined)	-1	16	0	-5	5	-5	-1

Going on with the list:
SMILES	Hck Nef HTS	FXIIa inh 1536	Thrombin inh	14-3-3 Bad PPI	FXIa inh	KLK5 inh	Wee1 stabilizer
CCCC(=O)NC(Nc1ccccc1OC)C(Cl)(Cl)Cl (centres undefined)	2	17	-2	-2	4	-7	-1
CCOCC(=O)Nc1cc(C(F)(F)F)ccc1Oc1cccc(Br)c1	1	13	4	13[fluorescence artefact?]	2	-12	-2
CCCCn1ccnc1C(=O)c1ccc(S(=O)(=O)N(CCOC)CCOC)cc1	0	18	1	36	4	-20	1
Cc1ccc(/C=N/n2nnnc2N)cc1[N+](=O)[O-]	1	10	3	-1	7	-10	-2
COC(=O)c1cc2n(n1)CCN(Cc1ccc(OC)cc1)C2=O	-1	16	3	-9	9	-16	0
Cc1ccc(S(=O)(=O)c2c(C)cc(-c3ccccc3)[nH]c2=O)cc1	0	8	-2	-13	1	-31	-1
Cc1cnc(C(=O)NCCc2ccc(S(=O)(=O)NC(=O)NC3CCCCC3)cc2)cn1	-1	7	-2	1	0	-8	0
CC1CCC(=C(C#N)C(=O)Nc2cccc(Cl)c2)CC1 (centres undefined)	1	17	1	-2[fluorescence artefact?]	-1	-4	-1
CC1CCCN(C(C(=O)Nc2ccc3c(c2)OCCO3)c2ccccc2)C1 (centres undefined)	1	7	-4	-2	-6	21	-3
Brc1ccc(-c2csc(N3CCc4ccccc4C3)n2)cc1	-1	8	2	-5	0	-17	1
CC(C)CC(=O)Nc1ccccc1-c1nnn(CC(=O)N2CCc3ccccc3C2)n1	1	7	2	4[fluorescence artefact?]	-2	5	-1
Cc1cc(=O)oc(C)c1C(=O)NCc1ccccn1	2	25	3	-6	9	22	-1
CCOC(=O)C1CCN(C(=O)c2cccnc2Cl)CC1	1	1	1	-1	-6	-1	0
CN1CCN(CC(O)c2ccccc2)CC1 (centres undefined)	1	0	-6	10	-10	0	0
Cc1cc(OC(=O)c2cc(F)c(F)cc2Cl)nc(C)n1	0	13	3	-9[fluorescence artefact?]	8	-18	0
Cc1cc(C)n(CC(=O)N/N=C/c2ccc(C)o2)n1	-1	24	25	-7	13	29	-2
COc1ccc(/C=C2\NC(=S)N(CC3CCCO3)C2=O)c(OC)c1 (centres undefined)	5	15	6	.	3	2	-2
C/C(CC(=O)Nc1cccc2c1CCCC2)=N\NC(=O)c1ccccc1N	2	6	0	-7	-1	-34	-2
CC1CN/C(=C\C(=O)c2ccccc2)C(=O)N1 (centres undefined)	0	20	7	-12	3	1	-1
COc1ccc(OCCn2cc(/C(N)=N/O)c3ccccc32)cc1	1	0	-5	-8[fluorescence artefact?]	-8	-2	-1
Cc1cc2cc3c(N)[nH]nc3nc2cc1C	7	10	4	-10	1	-1	-2
CS(=O)(=O)N(CC(=O)N/N=C/c1cccs1)c1cccc(Cl)c1Cl	2	1	-1	-5	-2	5	-3
N#Cc1cc([N+](=O)[O-])cnc1NCC(O)CO (centres undefined)	-1	17	-2	-1	3	0	-2
CCCS(=O)(=O)N1CCCC(C(=O)N2CCOCC2)C1 (centres undefined)	1	-8	-1	0	-8	4	-2
Cn1cnnc1SCC(=O)N1N=C2/C(=C/c3ccco3)CCCC2C1c1ccco1 (centres undefined)	0	11	-2	-13[fluorescence artefact?]	-5	0	-3

Arranged by count of non-hydrogen atoms (highest first): 16 of the compounds above.
SMILES	Hck Nef HTS	FXIIa inh 1536	Thrombin inh	14-3-3 Bad PPI	FXIa inh	KLK5 inh	Wee1 stabilizer
COC(=O)c1ccc(NC(=O)COc2ccc(C3C(C#N)=C(N)Oc4c3ccc3ccccc43)cc2OC)cc1 (centres undefined)	0	17	-3	27	3	-5	-1
Cc1ccc(C(=O)Nc2ccccc2-c2ccccc2)cc1S(=O)(=O)Nc1cccc(C)c1C	0	19	1	5	4	7	-1
Cc1cnc(C(=O)NCCc2ccc(S(=O)(=O)NC(=O)NC3CCCCC3)cc2)cn1	-1	7	-2	1	0	-8	0
CCCCn1ccnc1C(=O)c1ccc(S(=O)(=O)N(CCOC)CCOC)cc1	0	18	1	36	4	-20	1
CCC(C)(C(=O)NC1CCCC1)N(C(=O)c1ccccn1)c1ccccc1 (centres undefined)	0	4	-1	-2	-6	-6	-1
O=C(CN1C(=O)C2C3C=CC(C3)C2C1=O)Nc1cccc2c1CCCC2 (centres undefined)	0	7	-3	48	-2	12	1
CCOCC(=O)Nc1cc(C(F)(F)F)ccc1Oc1cccc(Br)c1	1	13	4	13[fluorescence artefact?]	2	-12	-2
COc1ccc(OCCn2cc(/C(N)=N/O)c3ccccc32)cc1	1	0	-5	-8[fluorescence artefact?]	-8	-2	-1
COC(=O)c1cc2n(n1)CCN(Cc1ccc(OC)cc1)C2=O	-1	16	3	-9	9	-16	0
O=C(O)COc1ccc(-c2nccc(-c3cccs3)n2)cc1	3	19	3	-2	-1	-10	-3
CC1CCc2c(C(=O)NCCN3CCOCC3)csc2C1 (centres undefined)	0	9	3	2	-1	-6	-3
CCOC(=O)C1CCN(C(=O)c2cccnc2Cl)CC1	1	1	1	-1	-6	-1	0
Cc1cc(=O)oc(C)c1C(=O)NCc1ccccn1	2	25	3	-6	9	22	-1
Cc1ccc(/C=N/n2nnnc2N)cc1[N+](=O)[O-]	1	10	3	-1	7	-10	-2
N#Cc1cc([N+](=O)[O-])cnc1NCC(O)CO (centres undefined)	-1	17	-2	-1	3	0	-2
CN1CCN(CC(O)c2ccccc2)CC1 (centres undefined)	1	0	-6	10	-10	0	0

(listing goes on)
SMILES	Hck Nef HTS	FXIIa inh 1536	Thrombin inh	14-3-3 Bad PPI	FXIa inh	KLK5 inh	Wee1 stabilizer
Cc1cc(C)c2c(c1)C1C=CCC1C(c1ccc(S(=O)(=O)N3CCOCC3)cc1)N2 (centres undefined)	0	22	4	-10	20	-4	-2
Cc1cc(-c2sccc2C)nc(-n2cccc2)n1	1	14	1	3[fluorescence artefact?]	1	2	-1
CCOC(=O)CC(=O)Nc1ccccc1C(=O)O	0	8	1	2[fluorescence artefact?]	-2	-2	-2
CC(C)C(NS(=O)(=O)c1cccs1)C(=O)Nc1nc(C(C)(C)C)cs1 (centres undefined)	-1	8	-8	10	-1	-7	-3
Cc1ccc(OCCCN(C)C)c(Br)c1	0	15	1	36	5	-50	-2
Cc1ccc2nc(NC(=O)COC(=O)c3ccc(Br)o3)sc2c1	3	12	3	64[fluorescence artefact?]	18	2	5
O=C(Nc1nc2c(s1)CN(Cc1ccccc1)CC2)c1cccc(S(=O)(=O)N2CCc3ccccc32)c1	5	19	2	-38[fluorescence artefact?]	7	-17	12*
CCN(CC(=O)NC1CCS(=O)(=O)C1)c1ccc(S(C)(=O)=O)cc1[N+](=O)[O-] (centres undefined)	1	10	9	-7[fluorescence artefact?]	2	-2	1
Cc1ccc(C2C(C(=O)c3ccco3)=C(O)C(=O)N2c2nnc(C)s2)cc1 (centres undefined)	2	7	10	70[fluorescence artefact?]	6	-9	1
O=C(Cc1ccc(Cl)cc1)N1CCN(C(=O)c2ccco2)CC1	-1	2	2	2[fluorescence artefact?]	-2	-10	2
CCN(CC)CCN1C(=O)Cn2c(C)c(C)c3cccc1c32	0&36	14&12	1&-6	-7&-15	2&1	-27&4	-3&-2
COc1ccc(C2C(Oc3ccccc3)C(=O)N2c2cc(C)ccc2C)cc1OC (centres undefined)	-2	12	-3	7	3	0	-3
COC(=O)CSc1nnc2n(C3CCCCC3)c(=O)c3c4c(sc3n12)CCCC4	2	2	-4	4	-6	-11	0
Cn1nc(C(F)(F)F)c(C(=O)Nc2ccc(Cl)cc2)c1Cl	1	16	-1	9	4	-17	-2
